Bioassay records: PubChem BioAssay, several laboratories
CSC inhib = cancer stem cell inhibition | cancer stem cell-like cells viability, luminescence | inhibition, % at 7.5 µM | actives 1.1% (n = 300,000);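 active = mean at 75% or more and at least half the replicates too; tested in HMLE shEcad cells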;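 note: 0% = median of negative and 100% = median of positive control wells; the first replicate is given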
Rce1 inh = yeast Ras-converting enzyme inhibition; yeast membranes, quenched prenylated peptide cleavage fluorescence; calls only; actives 0.27% (n = 290,000); AID 2563;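 active = fall in fluorescence gain of 50% or more versus controls, with final raw signal at or below 3038400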;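 note: plate controls were neutral control wells for no effect and wells lacking membranes for full effect; tested at 10 µM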
Target sequence (Q03530 whole entry, looked up): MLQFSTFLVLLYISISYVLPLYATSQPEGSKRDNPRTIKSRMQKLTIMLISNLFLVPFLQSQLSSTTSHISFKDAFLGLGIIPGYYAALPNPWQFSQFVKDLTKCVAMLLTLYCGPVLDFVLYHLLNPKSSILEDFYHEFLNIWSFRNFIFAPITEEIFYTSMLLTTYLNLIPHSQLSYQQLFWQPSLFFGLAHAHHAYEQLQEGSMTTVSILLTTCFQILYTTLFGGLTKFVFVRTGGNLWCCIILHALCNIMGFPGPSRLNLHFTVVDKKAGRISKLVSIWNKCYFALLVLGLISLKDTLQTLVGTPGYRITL
Env fusion inh = blocks HIV Env-driven cell-cell fusion | HeLa-JRFL Env/CEM21 cell fusion, luciferase | inhibition, % at 12.3 µM | actives 1.1% (n = 360,000);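 active = mean replicate inhibition score of at least 50 and every replicate individually at or above 50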;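 note: 0% = plate neutral controls and 100% = maraviroc near 300 nM; one replicate is shown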
Yeast UUG start = modulators of start codon recognition fidelity in yeast | S. cerevisiae UUG-firefly luciferase reporter, luminescence/redox ratio | activity score, % at 18.7 µM | actives 0.13% (n = 350,000);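 active = replicate mean at a twofold rise or more, about +100% in these data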;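 note: firefly luciferase made from a UUG start codon reports start codon fidelity; reporter light over untreated wells divided by growth signal over untreated wells; some hits fall short of that in this replicate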
eIF4H FP inh = inhibitors of RNA binding by human eIF4H. AID 2012. actives 0.94% (n = 290,000). inhibition, % at 35 µM. eIF4H fluorescence polarization binding assay. Q15056;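 active = 50% or more with normal probe brightness, or confirmed in later tests; about a fifth of its hits are not listed in these tables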;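 note: calls also rest on retests at 20 µM and on dose response follow-up; 0% = protein and probe with vehicle and 100% = probe without protein; strong numbers were not always called active; many hits fall short of the cut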
MT1-MMP act inh = MT1-MMP (human) activation inhibition; P50281; HT1080 RFP-PRO-GFP cells, GFP/RFP ratio fluorescence, overnight; percent of plate control window, DMSO zero; GFP/RFP ratio change, % at 20 µM; actives 0.061% (n = 360,000); AID 651647;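 active = GFP/RFP ratio change of at least 30% with cell ATP level not reduced by more than half and red fluorescence within 50% of control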; note: strong numbers were not always called active
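Material – HT1080 RFP-PRO-GFP cells · Control set – DMSO wells and RFP-L50D-GFP cells · Incubation – overnight cell settling, then overnight compound exposure, 37 °C, 5% CO2 · Compound dosing – single-point 20 µM compound, 1% DMSO · Read-out – GFP/RFP fluorescence ratio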
PABP FP inh = blocks human PABP binding to poly(A) RNA | fluorescence polarization | inhibition, % at 35 µM | actives 1% (n = 290,000) | AID 2014;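 active = 50% or more with normal probe brightness, or confirmed in later tests; about a fifth of its hits are not listed in these tables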;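 note: calls also rest on retests at 20 µM and on dose response follow-up; controls were probe without protein and protein plus probe with vehicle; some compounds called inactive have numbers as strong as hits; many hits fall short of the cut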
MT1-MMP act inh RFP = also measured in MT1-MMP act inh; calls as there; RFP signal change, %; measured here: RFP expression control read;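 0 = vehicle wells; hits needed this value within 50% of zero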
Numbers without * were called inactive; i = inactive; . = no result given; & = joins results of further samples. Only part of the results is shown; the hit share may differ from the screen's.

mol,MT1-MMP act inh RFP,Yeast UUG start,MT1-MMP act inh,CSC inhib,Env fusion inh,PABP FP inh,Rce1 inh,eIF4H FP inh
COc1ccc(CC(NC(C)=O)C(=O)NC2CCN(C(=O)Nc3ccccc3Cl)CC2)cc1OC (configuration not stated),1,-8,-1,4,-75,20,i,-12
CN(CC(=O)Nc1ccc(F)cc1)C(=O)COC(=O)C1=COCCO1,4,.,5,-11,-2,.,i,.
N#Cc1ccc(NC(=O)CSc2nc3[nH]c(=O)cc(O)c3s2)cc1,6,-14,-3,6,0,.,.,.
Cc1cc(OCC(=O)Nn2cnnc2)c(C)cc1Br,3,-21,-2,-6,.,9,i,-10
C(=N\n1cnnc1)/c1cccc(OCCOc2ccccc2)c1,2,-8,3,-2,.,-10,.,-1
COc1cccc(C(=O)NC(=S)Nc2cccnc2)c1,1,.,-2,0,-8,-10,i,4
Cc1cccc(-c2ccc3[nH]c4c(c3c2)CCN2C[C@@H]([C@H](C)O)[C@@H](N(C)C(=O)Nc3ccc(F)cc3)C[C@@H]42)c1,-3,-11,-7,.,22,.,.,.
CCn1c(O)c(N=NC(=O)c2cccnc2)c2cc(Br)ccc21,2,1,-2,38,-9,9,i,-4

Two consecutive compounds out of the list so far, quoted:
mol,MT1-MMP act inh RFP,Yeast UUG start,MT1-MMP act inh,CSC inhib,Env fusion inh,PABP FP inh,Rce1 inh,eIF4H FP inh
Cc1cccc(-c2ccc3[nH]c4c(c3c2)CCN2C[C@@H]([C@H](C)O)[C@@H](N(C)C(=O)Nc3ccc(F)cc3)C[C@@H]42)c1,-3,-11,-7,.,22,.,.,.
CCn1c(O)c(N=NC(=O)c2cccnc2)c2cc(Br)ccc21,2,1,-2,38,-9,9,i,-4

Following part
mol,MT1-MMP act inh RFP,Yeast UUG start,MT1-MMP act inh,CSC inhib,Env fusion inh,PABP FP inh,Rce1 inh,eIF4H FP inh
Cc1ccc(OCCNC(=O)c2ccc3c(c2)OCO3)cc1,1,-11,0,-13,-22,-9,i,14
COc1nc(NC(C)C)nc(N(C#N)CN2C(=O)c3ccccc3S2(=O)=O)n1,0,-12,-3,6,-12,7,i,0
COc1ccc(OC)c(CNS(=O)(=O)c2cn(C)cn2)c1,1,2,0,10,-5,-1,i,-1
NC(=O)C1(c2ccccc2)CCOCC1,2,-11,0,-18,.,-1,i,-5
O=C(CN1C(=O)c2ccccc2S1(=O)=O)NCc1ccccn1,-3,-22,-3,-7,17,1,i,0
C=CCN(C(=O)CN1CCOCC1)c1nc(C)c(-c2ccccc2)s1,-2,-2,-8,.,.,4,i,-8
COc1ccc(C2=NN(c3ccccc3)C(c3cccs3)C2)cc1 (configuration not stated),-4,.,-5,31,-8,-5,i,-6
O=C(c1cc2cc(Br)ccc2o1)N1CCCCC1,-2,1,-2,0,-36,0,i,5
Cc1ccc(OC/C(=N\O)C(C)(C)C)c([N+](=O)[O-])c1,-10,.,5,15,-17,3,i,6
O=C(CSc1cnc2ccccc2n1)NC1CCCC1,0,-23,-3,4,6,-9,i,-1
COc1cccc(S(=O)(=O)Nc2ccc3c(c2)[C@@H]2C[C@H](CC(=O)NCCc4ccccc4)O[C@H](CO)[C@@H]2O3)c1,-4,2&-2,-3,.,-5,.,.,.
O=[N+]([O-])c1ccc(N2CCN(C(=S)NCc3ccc(Cl)cc3)CC2)cc1,-23,.,1,6,22,-8,i,-3
C[N+]1(CCCCSc2ccc(O)cc2)CCCCC1,7,-11,2,8,5,6,i,3
O=S(=O)(N(Cc1ccccc1)[C@@H](CO)Cc1ccccc1)N(Cc1ccccc1)[C@@H](CO)Cc1ccccc1,-11,-2,-7,7,71*,.,.,.
CCCC1OC2CC3C4CCC5=CC(=O)C=CC5(C)C4C(O)CC3(C)C2(C(=O)O)O1 (configuration not stated),3,14,-3,-7,-194,-7,i,-7
Cc1oc2cc(O)ccc2c(=O)c1-c1ccccc1,1,.,1,-7,-36,14,i,-1
O=C(O)CC(=O)Nc1cc(Cl)ccc1O,4,-24,2,1,.,9,i,-4
O=C(Nc1cc(C(F)(F)F)ccc1N1CCCC1)C1CCCO1 (configuration not stated),-3,-8,0,-3,22,.,.,.
CC(=O)c1ccc(OCc2cc(C(=O)N(C)CC3COc4ccccc4O3)no2)cc1 (configuration not stated),-8,3,-3,.,-18,.,.,.
O=C1N=C(N2CCCCC2)S/C1=C\c1ccccc1F,-2,1,1,0,-26,3,i,-3
Cc1cc(C)cc(NC(=O)CSc2nnc(-c3ccccc3)n2N)c1,7,-17,8,-10,-149,22,i,3
COC(=O)c1cn(NC(=O)Cc2cccc(OC)c2)c(=O)c2ccccc12,3,-8,-2,-10,-5,3,i,13
CC1(C)Cc2c(C#N)c(NCC3CCCO3)nc(-c3ccco3)c2CO1 (configuration not stated),1,-15,-5,.,.,16,i,12
COc1ccc(C(=O)NCC(=O)OCC(=O)N2CC(C)CC(C)C2)cc1 (configuration not stated),1,-21,-7,-6,-9,0,i,1
CCOc1cc(NC(=S)NCC2CCCO2)c(OCC)cc1NC(=O)c1cccc(C)c1 (configuration not stated),-6,-18,2,-15,-84,5,i,-9
Cc1ccsc1/C=N/n1c(-c2cccnc2)n[nH]c1=S,0,-29,-3,6,-66,7,i,4
COCCCNC(=O)c1ccc2c(c1)OCO2,7,-18,2,-5,-21,-2,i,7
CSc1nnc(-c2cccs2)n1-c1ccccc1,-3,-20,-1,-1,-28,-10,i,-2
CS(=O)(=O)c1ccccc1-c1nc(-c2ccc(C(F)(F)F)cc2)no1,-3,1,4,3,.,-2,i,-2
COc1ccc2ccc(=O)oc2c1CC=C(C)C,-2,-14,1,-16,.,-1,i,1
CCCOc1ccc(Br)cc1/C=N/NC(=O)c1cc(OC)c(OC)c(OC)c1,-4,.,15,-4,7,-8,i,2
O=C1C2C3C=CC(C3)C2C(=O)N1/N=C/c1cn(Cc2ccc(F)cc2)c2ccccc12 (configuration not stated),-7,-6,-19,71,-5,-4,i,0
Cc1cc(C)n(C(=O)CNC(=O)c2ccccc2Br)n1,0,-5,-5,-19,-9,-2,i,-4
C/C(CS(=O)(=O)c1ccc(Cl)cc1)=N/NC(N)=S,2,-9,-3,-4,14,0,.,-3
Cc1sc(NC(=O)C2C3C=CC(C3)C2C(=O)O)c(C(N)=O)c1-c1ccc(C(C)C)cc1 (configuration not stated),-2,.,-3,-3,-42,3,i,-6
CC1CCCCN1C(=O)/C=C/c1ccccc1[N+](=O)[O-] (configuration not stated),8,.,1,-13,17,2,i,0
COc1cc(Oc2ccccc2)nc(N)n1,-4,.,-3,-5,4,.,i,.
COc1ccc(-n2c(SCC(=O)Nc3nccs3)nc3c(c2=O)SC(C)C3)cc1 (configuration not stated),2,-5,0,12,-48,-15,i,1
O=[N+]([O-])c1cc(F)cc(F)c1Nc1ccc(F)cc1,2,-19,3,.,-10,.,.,.
Cn1c(=O)n(C)c2cc(S(=O)(=O)NCC(=O)O)ccc21,1,-15,-9,-3,6,-5,i,-8
Cc1nn(Cc2cccc(C(=O)Nn3cc([N+](=O)[O-])cn3)c2)c(C)c1[N+](=O)[O-],-4,-7,-4,-1,-11,-13,i,4
COc1ccc(Cl)cc1NC(=O)NN1CCN(C)CC1,3,-10,0,0,-8,5,i,-11
COc1ccc(S(=O)(=O)N2CCN(c3ccccn3)CC2)cc1OC,-4,-22,-1,3,.,-2,i,0
Cc1cc(C)cc(NCCC#N)c1,3,.,-1,-10,14,1&3,i,2&6
CC(C)CNC(=O)C(=O)NCC1CCCN1S(=O)(=O)c1cccs1 (configuration not stated),1,-6,-3,-6,-8,.,i,.
CCC/C(O)=N\S(=O)(=O)c1ccc(N=NN(C)C)cc1,5,-24,7,4,.,-5,i,6
CC/C(C)=N\Nc1nc(-c2cc3cc(OC)ccc3oc2=O)cs1,-2,-14,3,20,-11,22,i,30
Cc1ccc(N2CC(C(=O)Nc3ccc4c(c3)OCCO4)CC2=O)cc1C (configuration not stated),4,-9,-1,.,-4,1,i,2
CCOc1ccccc1NC(=O)C(Sc1nnc2ccccn12)c1ccccc1 (configuration not stated),4,.,0,14,18,-3,i,3
Nc1ccc(C(=O)CC(=O)Nc2ccc(Cl)cc2)cc1,3,30,7,28,-4,2,i,-3
CC(=O)c1ccc(N2CCN(C(=S)Nc3cccc(F)c3)CC2)cc1,-2,.,0,-1,.,-2,i,1
COCCCNC(=S)Nc1cccc(SC)c1,-3,.,1,17,5,-5,i,-3
O=C(O)/C=C\C(=O)Nc1ccccc1C#Cc1ccc(Br)cc1,-18,5,-30,.,-265,-7,i,18
Brc1cccc(-c2cnc3n2CCCCC3)c1,-10,.,1,-1,.,16,i,3
Cc1ccc(N2CCN(C(=O)c3cccs3)CC2)cc1C,2,5,1,-2,-10,-9,i,-5
Cc1csc(SCC(=O)NCc2ccc3c(c2)OCO3)n1,2,.,-1,-13,19,5,i,0

Next section:
mol,MT1-MMP act inh RFP,Yeast UUG start,MT1-MMP act inh,CSC inhib,Env fusion inh,PABP FP inh,Rce1 inh,eIF4H FP inh
COc1ccc(C2C(C(C)=O)=C(C)Nc3ncnn32)cc1[N+](=O)[O-] (configuration not stated),0,-25,0,-7,-2,2,i,-4
C/C(=N\NC(=O)CCC(=O)Nc1ccc(C)c(C)c1)C1CC1,6,6,2,-2,-15,-8,i,0
COc1ccc(-c2cc(=O)oc3c(C)c(OCC(=O)Nc4cccnc4)ccc23)cc1,-12,-14,-1,31,-5,-36,i,-39
O=C(CCCN=C1NS(=O)(=O)c2ccccc21)Nc1ccc(Cl)cc1,1,-4,-2,-11,-1,.,.,.
CCCCCc1c(O)nc(SCC(=O)NCC2CCCO2)[nH]c1=O (configuration not stated),6,4,3,3,.,-6,i,-2
Cc1ccc(NS(=O)(=O)c2cc(OCC(N)=O)c(C)cc2Cl)cc1C,-1,-7,7,-3,-12,1,i,6
COc1cccc(NC(=O)CN(C)CC(=O)Nc2ccc3c(c2)OCO3)c1,0,3,1,-5,7,.,.,.
Cn1ncc2c(Nc3cccc4ccccc34)ncnc21,0,-2,-3,3,-123,8,i,-5
CC(C)N(Cc1ccccc1)C(=O)COc1ccccc1,1,50,-3,3,1,2,i,-10
COc1ccc(S(=O)(=O)NCc2ccc(C(=O)O)cc2)cc1,5,.,2,-6,.,4,i,-2
Cc1ccc(NC(=S)N(Cc2ccco2)C2CCN(C(C)C)CC2)cc1,5,-10,3,-6,15,-3,i,5
O=C(NC1CCCCC1)c1ccc(S(=O)(=O)NCc2cccnc2)cc1,-8,-4,4,18,35,-2,i,1
COc1ccc(OC)c(NC(=O)C23CCC(C)(C(=O)O2)C3(C)C)c1 (configuration not stated),0,-9,-1,8,.,-12,i,-10
COc1cc(C)c(S(=O)(=O)n2ccc(C)n2)cc1C,7,-3,5,4,-59,12,i,-3
O=C(c1ccc(F)cc1)N(Cc1ccco1)C1CCS(=O)(=O)C1 (configuration not stated),4,-10,4,-5,7,0,i,0
CCCc1ccc2oc(C(=O)NCCN3CCCC(O)C3)c(C)c2c1 (configuration not stated),1,-13,4,.,.,5,i,-2
Cc1ccc(C(C(=O)NC2CCCC2)N(Cc2ccccc2)C(=O)c2csnn2)o1 (configuration not stated),-3,-12,-4,-16,49,5,i,2
CCOC(=O)c1[nH]c(C)c(C(=O)OCC(=O)NCc2ccc(OC)cc2)c1C,-2,-11,-4,-16,.,.,.,.
O=C(O)CSCC(=O)N1CCCCC1,6,.,0,-9,2,0,i,2
S=C(NC1CC1)SCc1ccco1,1,-16,-2,.,3,.,.,.
